Screening results deposited in PubChem BioAssay by National Center for Advancing Translational Sciences (NCATS).
NPR1 antag: human Npr1 receptor antagonism; HEK293 hNpr1 GloSensor cGMP, ANP-stimulated luminescence; Potency, µM (top dose mostly 46.3 µM), for inactives: top-dose activity change, negative = inhibition, usual class: inhibitors; hit rate 1.6% among 76,000; AID 1347048; active = well fitted inhibition curve with a large enough effect; inconclusive = small, poorly fitted or top-dose-only effect; inactive = no such curve, though single readings can be large or run the other way;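 further: nearly all actives have a fitted effect of over 60% in size; nearly all hits also lower the signal before the agonist is added; a reference antagonist and vehicle were the controls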
Target sequence (P16066 whole entry, looked up): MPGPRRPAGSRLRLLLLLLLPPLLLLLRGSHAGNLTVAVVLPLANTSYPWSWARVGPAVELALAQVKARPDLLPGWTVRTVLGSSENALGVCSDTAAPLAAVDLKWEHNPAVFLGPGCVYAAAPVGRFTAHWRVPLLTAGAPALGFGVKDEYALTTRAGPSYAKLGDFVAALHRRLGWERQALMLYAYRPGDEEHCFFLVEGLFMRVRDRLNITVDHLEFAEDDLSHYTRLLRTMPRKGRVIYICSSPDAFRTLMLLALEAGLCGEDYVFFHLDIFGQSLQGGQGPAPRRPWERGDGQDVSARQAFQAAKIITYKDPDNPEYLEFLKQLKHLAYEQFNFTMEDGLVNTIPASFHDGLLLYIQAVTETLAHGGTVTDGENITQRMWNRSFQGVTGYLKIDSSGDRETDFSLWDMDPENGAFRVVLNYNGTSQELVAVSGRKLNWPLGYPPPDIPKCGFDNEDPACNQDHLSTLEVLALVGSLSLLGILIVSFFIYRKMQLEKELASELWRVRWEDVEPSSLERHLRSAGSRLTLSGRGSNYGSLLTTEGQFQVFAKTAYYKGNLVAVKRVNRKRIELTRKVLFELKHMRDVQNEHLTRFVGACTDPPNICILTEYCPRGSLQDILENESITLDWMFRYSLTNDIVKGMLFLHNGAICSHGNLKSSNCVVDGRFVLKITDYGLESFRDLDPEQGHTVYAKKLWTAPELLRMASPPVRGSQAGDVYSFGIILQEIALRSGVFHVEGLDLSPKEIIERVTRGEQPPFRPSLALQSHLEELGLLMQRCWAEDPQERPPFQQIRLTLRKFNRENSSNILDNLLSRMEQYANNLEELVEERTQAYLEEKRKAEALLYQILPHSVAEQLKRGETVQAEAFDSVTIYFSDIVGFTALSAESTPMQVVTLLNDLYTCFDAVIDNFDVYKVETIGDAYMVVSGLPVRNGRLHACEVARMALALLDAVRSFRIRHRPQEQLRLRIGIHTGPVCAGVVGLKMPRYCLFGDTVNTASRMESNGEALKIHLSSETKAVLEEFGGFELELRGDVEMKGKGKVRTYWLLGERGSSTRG
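Compound pre-incubated 30 min at room temperature on GloSensor-loaded HEK293 cells stably carrying hNpr1 and the pGS-40F cGMP biosensor. Stimulation uses hNppA at 0.1 nM final; luminescence is taken at baseline and 20 min post-agonist.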
* = called active by the depositor; ? = inconclusive; [ ] = another dose, or the depositor's remark. On the % scale 0 is the no-effect control and ±100 the full control effect; potency means the concentration at half of the fitted maximal effect. The list is partial; count on the stated rates, not on these rows.

SMILES	NPR1 antag
CC(C)CN1CCN(C(=O)CCC2CCN(c3cc(NC4CC4)ncn3)CC2)CC1	-31%
O=C(CCC1CCCN(C(CO)CO)C1)N1CCN(Cc2ccccc2)CC1 (stereo unspecified)	4%
Cc1noc(C)c1[S+](=O)([O-])N1CCCC(c2nn(-c3ccccc3)c(=O)[nH]2)C1 (stereo unspecified)	0%
Cc1cn2nnc(C(=O)N3CCC(C(=O)NCc4cccc(Cl)c4)CC3)c2c(=O)[nH]1	7%
NS(=O)(=O)c1ccc(C(=O)NCCn2cccn2)cc1	3%
Cn1ncc(N2CCC(CNC(=O)c3cccc(-n4cnnc4)c3)C2)cc1=O (stereo unspecified)	-1%
CCCn1cc(-c2ccnc(NC3CCN(Cc4cccnc4)CC3)n2)c(C)n1	?
COCCn1ncc(N2CCCC(CC(=O)NCCN3CCOCC3)C2)cc1=O (stereo unspecified)	18%
Cc1ccc(CN2CCOC[C@H](Oc3ccc(C(F)(F)F)cc3)C2)cc1	-17%[70.6 µM]
CCN(Cc1nccn1C)C(=O)c1ccc(N2CCC(COC)C2)nc1 (stereo unspecified)	3%
COc1ccc(Cl)cc1S(=O)(=O)N1CCC(n2cnnc2-c2ccccc2)CC1	-3%
Cc1nn(CC(=O)NCCc2cscn2)c(=O)n1CCc1ccccc1	5%
OC[C@@H]1O[C@H](CNCc2ccc(F)cc2)[C@H](N2CCCC2)[C@@H]1O	5%[70.6 µM]
CC(C)(C)NC(=O)CN1C(=O)NC2(CCCCC2)C1=O	1%
O=C(Cn1ccn2nc(-c3ccc(F)cc3)c(CO)c2c1=O)Nc1cccc(F)c1	-3%
CCOc1cccc(CN2CC(C(=O)NCc3ccncc3)C3(CCOCC3)C2)c1 (stereo unspecified)	-2%
Cc1cccc(C(=O)N2CCN(C(=O)c3nnn4c3COC(c3ccccc3)C4)CC2)c1 (stereo unspecified)	?
CCOc1ccc(CC(=O)N2[C@@H]3CC[C@H]2CC(NC(=O)c2ccc(F)cc2)C3)cc1 (stereo partly specified)	2%
CC(=O)Nc1cccc(-c2n[nH]c3c2CC(=O)N(CC2CC2)C3)c1	-9%[70.6 µM]
O=C(Cc1ccccc1)N1CCC2(CC1)CC(N(Cc1ccccc1)C1CC1)CCO2 (stereo unspecified)	9%
COc1cc(NC(=O)Cn2nc3n(c2=O)CCCC3)cc(OC)c1OC	4%
O=C(c1cc2ccccc2[nH]1)N1CCC(Cc2nncn2CC2CC2)C1 (stereo unspecified)	-5%
CCOC(=O)C1CCCN(C(=O)c2cc3c(s2)CN(C2CCCC2)C3)C1 (stereo unspecified)	1%
COCCCNC(=O)CCCN1C(=O)COc2ccc(C(=O)COc3ccc(C)c(C)c3)cc21	0%
O=C(Cc1cccs1)N1CCN(c2cc(C(F)(F)F)ncn2)CC1	1%
COc1cccc(CN2CCCCCCNC(=O)[C@@H]3C[C@@H](C(=O)N4CCc5ccccc5C4)C[C@@H]32)c1	-11%
O[C@@H]1CC(CNCc2ccc(F)cc2)(COc2ccc(C(F)(F)F)cn2)C[C@@H]1O (stereo partly specified)	-8%
CC1=C[C@@H](CNCCN2CCOCC2)[C@H](C(C)C)C[C@H]1Cc1nnc(-c2ccccc2)o1	0%
O=c1cc(-c2cnccn2)oc2c(Nc3ccccn3)nccc12	3%[70.6 µM]
COCCc1noc([C@@H]2CC(F)(F)CN2C(=O)CCn2cccn2)n1	5%
COc1ccc(C(=O)NC2CCN(c3cc(-c4cccs4)[nH]n3)C2)cc1OC (stereo unspecified)	0%
COCC1CN(C)CC12CCN(Cc1cccc(OC)c1OC)CC2 (stereo unspecified)	3%
COC(=O)CNC(=O)C1CN(S(=O)(=O)c2cccs2)CC12CCCCC2 (stereo unspecified)	-4%
Cc1cc(=O)n(CC(=O)N[C@H](c2ccccn2)C2CC(O)C2)nc1C (stereo partly specified)	6%
CC(NC(=O)c1ccc(Cn2ccn3nc4c(c3c2=O)CCCC4)cc1)c1ccccc1 (stereo unspecified)	-15%
O=C(CN1CCN(c2nccc(-c3cccnc3)n2)CC1)N1CCOCC1	0%
COc1cccc(C(=O)N2CCC3(CC2)SCC(=O)N3c2ccc(F)cc2)c1	4%
O=C1NC2(CCN(C(=O)c3ccccc3)CC2)COc2ccccc21	?
CCNC(=O)[C@@H]1C[C@H](NC(=O)Cc2cc(C)ccc2C)CN1C1CCCC1	-12%
COCCN1C(=O)c2cccn2CC1CNC(=O)CC1CCCC1 (stereo unspecified)	2%
CCC1(O)CCC12CCN(C(=O)Cc1cccnc1)CC2 (stereo unspecified)	-1%
Nc1nc(-c2cccc(CN3CCOCC3)c2)cc(N2CCCC2)n1	-4%
O=C(CN1CCOC(c2ccc(F)cc2)C1)NCc1ccccn1 (stereo unspecified)	1%
COc1cccc(C(=O)N2CCC3(CC2)NC(=O)N(Cc2ccccc2)C3=O)c1OC	9%
CC(C)N1C[C@H](O)C[C@H]1c1nc(-c2ccc(F)cc2)no1	1%[70.6 µM]
CCn1cc(CN2CCN(Cc3ccccc3)CC2)ccc1=O	-15%
CC(C)(C)NS(=O)(=O)c1ccccc1-c1ccc(Cn2ccnc2)cn1	-1%
CCCCn1c(CN(C)Cc2[nH]c3ccccc3c2C)cnc1S(=O)(=O)CC	-3%
O=C(C1CCOCC1)N1CCC2(CC1)CC(N(Cc1ccccc1)C1CC1)CCO2 (stereo unspecified)	5%
COc1ccc(C(C)NC(=O)c2noc(-c3ccccc3F)n2)cc1OC (stereo unspecified)	-16%
CNc1ccc(-c2noc([C@@H]3CCCN3Cc3ccccn3)n2)cn1	-1%[70.6 µM]
COc1cccc(CC(=O)N2CCC3(CC2)CC(N(C2CC2)S(C)(=O)=O)CCO3)c1 (stereo unspecified)	-3%
COc1ccc(C(=O)N[C@@H]2CCC[C@@H]2C(=O)NCCCc2ccccc2)cn1	1%
CC(C)c1ccc(N2CC(C(=O)N(C)CCc3cnn(C)c3)CC2=O)cc1 (stereo unspecified)	2%
O=C(Nc1cccc(F)c1)C1CCN(C(=O)N2CC3CC(C2)[C@H]2CCCC(=O)N2C3)CC1 (stereo partly specified)	0%
CC(=O)N1CCc2nn(CC(=O)N3CCN(c4ccccc4)CC3)c(=O)cc2C1	1%
COc1ccc(OC)c(S(=O)(=O)N[C@H]2CO[C@H]3[C@@H]2OC[C@H]3OC(=O)Nc2cccc3ccccc23)c1	7%
COc1ccc(CNC(=O)[C@@H]2CCC[C@@H](NCc3ccc(C(F)(F)F)cc3)CN(C)C(=O)C2)cc1	?
CN1CC2(CCN(C(=O)CCc3nc(-c4ccco4)no3)C2)OC1=O (stereo unspecified)	4%
CN(C)[C@@H]1CN(Cc2ccc3[nH]ccc3c2)CC[C@@H]1CNC(=O)C1CC1	1%
Later entries:
SMILES	NPR1 antag
COCC1CN(C(=O)CCCc2ccccc2)CC12CCNCC2 (stereo unspecified)	1%
COCCc1noc([C@@H]2CC(F)(F)CN2C(=O)c2ccccc2F)n1	0%
CCNC(=O)NC[C@@H]1C=C(C)[C@H](CC(=O)NCc2ccc(F)cc2)C[C@H]1C(C)C	-2%[70.6 µM]
CNC(=O)CCn1ncc2cc(OCc3ccccc3-c3ccc(F)cc3OC)ccc21	?
CN(Cc1cnn(C)c1)C(=O)c1csc2nc(-c3ccc(C(F)(F)F)cc3)cn12	?
O=[N+]([O-])c1cccc(-c2noc([C@@H]3Cc4nc[nH]c4CN3Cc3cccs3)n2)c1	?
CC(C)C[C@@H]1N[C@H](C(=O)N2CCC(NC(=O)c3ccccc3)CC2)Cc2c[nH]c3cccc1c23	-3%
CCOC(=O)C1(Cc2ccccc2F)CCCN(C(=O)c2ccc3ncccc3c2)C1 (stereo unspecified)	-5%
O=C1Nc2ccccc2C2(CCN(C(=O)c3ccccc3)C2)O1 (stereo unspecified)	0%[70.6 µM]
COc1ccc(-c2nc(C)nc3c2CCN(CC2CC2)CC3)cc1	11%[70.6 µM]
O=C(Cn1nc2c(cc1=O)CCCC2)Nc1ccc(Cn2cncn2)cc1	0%
C[C@H](O)c1onc(-c2ccc(F)cc2)c1C(=O)N1CCCCC1	-7%[70.6 µM]
CCNC(=O)[C@@H]1CCCN1[C@@H](C(=O)NC)c1ccccc1	3%[70.6 µM]
COc1ccccc1CCC(=O)N1CC[C@@H]2CN(S(C)(=O)=O)[C@@H]2C1	1%
Cc1cn2nc(C(=O)NC3CCCC3)cc2c(N2CCSCC2)n1	3%
Cc1cccc(NC(=O)C2CC(=O)Nc3ncnn32)c1 (stereo unspecified)	1%
CC(=O)N1CCN(C(=O)c2nc(-c3ccccc3)cs2)CC(O)C1 (stereo unspecified)	14%
CCOc1ccccc1NC(=O)Cn1nc2n(c1=O)CCCCC2	5%
CCC1(C(=O)Nc2ccc(C)c(F)c2)CCCCC(=O)N1 (stereo unspecified)	-2%
O=c1c2cc(-c3cccs3)nn2ccn1CC(O)c1ccc(F)cc1 (stereo unspecified)	-23%
O=C(c1ccccc1)N1CCCC(c2nn(-c3ccc(F)cc3)c(=O)[nH]2)C1 (stereo unspecified)	-9%
Cc1ccccc1C(=O)N1CCC(N2CC3CCCN3C2=O)CC1 (stereo unspecified)	14%[70.6 µM]
COc1ccc(C(=O)N2C[C@@H]3C[C@H](C2)c2ccc(NS(=O)(=O)c4ccc(NC(C)=O)cc4)c(=O)n2C3)cc1	1%
CSc1cccc(Nc2ncncc2-c2nc(-c3ccccc3)no2)c1	-16%
CC(=O)Nc1ccccc1-c1c(C)nn2c1N(C(=O)Cc1ccc(Cl)cc1)CCC2	-2%[70.6 µM]
CCOc1cccc(CNC(=O)C2CCN(c3cn[nH]c(=O)c3)C2)c1 (stereo unspecified)	8%
Cc1oc2c(c1C(=O)N1CCOCC1)CN(Cc1cccnc1)CC2	-14%
COc1ccc(-c2ccc(COc3ccc4c(cnn4CCC(=O)O)c3)cc2)c(Cl)c1	-2%[70.6 µM]
Cc1ccc(S(=O)(=O)NC[C@H]2OC[C@@H](NCc3cccnc3)[C@@H]2O)cc1	1%[70.6 µM]
Cc1ccc(C)c(S(=O)(=O)N2CCC(CC(=O)NCc3ccccc3)C2)c1 (stereo unspecified)	-2%
Cc1ccc(C2Cn3nnc(-c4noc(CNC(=O)c5ccccc5)n4)c3CO2)cc1 (stereo unspecified)	0%
CC(C)(C)C(=O)Nc1nc2c(s1)C[C@@H]1[C@](C)(CO)[C@H](O)CC[C@@]1(C)[C@@H]2CC(=O)NCCN1CCOCC1	3%
Fc1c(Cl)cccc1Nc1ncncc1-c1nc(-c2ccccc2)no1	-10%
CCC(=O)N1CCC(OC2CCN(Cc3cccnc3)CC2)CC1	2%
O=C1NCCCc2[nH]c(-c3cc(-c4cccc(F)c4)no3)nc21	-29%
O=C([C@@H]1C[C@H](Oc2cccnc2)CN1C(=O)c1n[nH]c(=O)c2ccccc12)N1CCCC1	-6%
Fc1ccccc1CNC[C@H]1Cn2cc(-c3ccccc3)nc2CO1	3%[70.6 µM]
CCCc1ccc(S(=O)(=O)N2C[C@@H]3C(=O)N(C(CC)c4cccs4)C(=O)[C@@H]3C2)cc1 (stereo partly specified)	-25%
CC(C)NC(=O)C[C@@H]1C[C@H]2O[C@H](CNC3CCN(C)CC3)[C@@H](O)[C@H]2O1	1%[70.6 µM]
O=C(Cn1nc2c(cc1=O)CCCCC2)Nc1nc2ccccc2s1	3%
Cc1nc(C)c(C(=O)N2CCC(c3noc(-c4cnccn4)n3)C2)s1 (stereo unspecified)	3%
CN(C)C[C@@H]1CN(C)C[C@H]1NC(=O)CCCc1ccccc1	0%
O=C(CC1CCCN(c2cn[nH]c(=O)c2)C1)NCCC1=CCCCC1 (stereo unspecified)	-6%
COc1cc(-c2ccnc3nc(CCc4ccccc4)nn23)cc(OC)c1OC	-6%
Cc1cc(NC(=O)Cn2c(=O)c(-c3noc(C)n3)c3n(c2=O)CCCCC3)no1	6%
Cc1ccc(O[C@H]2CCOC[C@H]2NC(=O)CCN2CCCCO2)cn1	1%
COc1cccc(-c2cc(C(=O)NCc3cccnc3)c3c(c2)N(C)CCO3)c1OC	-3%[70.6 µM]
COc1ccc(CC(=O)Nc2ccc(N3CCC(NCCc4c(C)n[nH]c4C)CC3)cc2)cc1	-22%
O=C(NCc1nnc2ccc(-c3ccccc3)nn12)c1ccc[nH]1	6%
